Ecoli rRNA inh = reduced GFP signal of wild-type E. coli, primary screen, bacterial rRNA inhibitor project, GFP/RFP fluorescence, OD600, single point. E. coli WT GFP vs humanized-ribosome RFP mutants, 24 h; stronger effect = lower value; DMSO median 0, no signal -100. GFP signal change (wild-type ribosome), % (test concentration not listed). 350,000 tested, 1.6% active. AID 720706, 2013;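 active = significant combined selectivity score with lowered wild-type GFP, culture density cut under 30%, mutant RFP and density less affected; inactive = any of these conditions unmet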; note: one replicate is shown; some compounds called inactive have numbers as strong as hits
AF4-AF9 inh = inhibitors of AF4 peptide binding to AF9, primary screen, biochemical, AlphaScreen, biotin-AF4 peptide, FLAG-AF9, single point | inhibition, % at 10 µM | 350,000 tested, 0.47% active | AID 651704, 2012;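 active = every replicate reaching a set inhibition limit, whatever the replicate mean, cut at about 25% in these data; inconclusive = mean inhibition reaches that limit but some replicates miss it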;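 note: 0% = plate neutral control median and 100% = total signal loss; the record names both 10 and 1 µM as test concentration; the first replicate is given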
Target sequence (P42568 whole entry, looked up): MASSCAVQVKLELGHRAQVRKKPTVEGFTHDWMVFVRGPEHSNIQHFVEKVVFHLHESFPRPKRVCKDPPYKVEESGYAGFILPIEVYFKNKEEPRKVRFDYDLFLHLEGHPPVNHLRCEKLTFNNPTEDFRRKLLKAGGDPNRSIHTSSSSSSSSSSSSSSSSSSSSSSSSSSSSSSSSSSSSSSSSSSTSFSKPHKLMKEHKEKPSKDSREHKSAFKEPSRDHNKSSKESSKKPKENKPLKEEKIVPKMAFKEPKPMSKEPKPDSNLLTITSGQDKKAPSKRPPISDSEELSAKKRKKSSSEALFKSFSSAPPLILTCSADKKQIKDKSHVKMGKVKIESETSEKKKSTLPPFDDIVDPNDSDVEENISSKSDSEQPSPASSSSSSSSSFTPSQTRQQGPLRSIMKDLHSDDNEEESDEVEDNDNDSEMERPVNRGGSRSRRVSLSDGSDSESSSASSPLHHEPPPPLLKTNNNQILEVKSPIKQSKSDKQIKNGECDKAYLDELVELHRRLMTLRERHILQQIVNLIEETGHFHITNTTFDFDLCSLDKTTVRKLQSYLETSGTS
Ecoli rRNA inh OD600 = also measured in Ecoli rRNA inh; calls as there; OD600 change, %; measured here: OD600 growth;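 optical density of the mix in the first replicate; 0 = DMSO median and -100 = no signal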
Ecoli rRNA inh RFP = second read-out of Ecoli rRNA inh, no call of its own (marks repeat the call); RFP signal change, %; measured here: RFP humanized mutant strains;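 first replicate; 0 = DMSO median and -100 = no signal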
An asterisk follows results filed as active; ? = inconclusive; & = joins results of further samples. Only part of the results is shown, so the mix of outcomes need not match the whole.

item	Molecule	AF4-AF9 inh	Ecoli rRNA inh OD600	Ecoli rRNA inh RFP	Ecoli rRNA inh
1	CCCN(C)C[C@H]1OCCCC[C@H](C)Oc2ccc(N(C)C)cc2C(=O)N([C@@H](C)CO)C[C@H]1C	9.0	2	0.4	0
2	Cc1ccc(S(=O)(=O)Nc2ccc3c(c2)C(=O)N([C@@H](C)CO)C[C@@H](C)[C@@H](CN(C)C(=O)Nc2cccc4ccccc24)O3)cc1	4.3	-4	2.8	-2
3	O=C(C[C@@H]1C[C@H]2c3cc(NS(=O)(=O)c4ccc(F)cc4)ccc3O[C@H]2[C@H](CO)O1)NCc1ccc(-c2ccccc2)cc1	0.5	-14	10	3
4	CCCNC(=O)Nc1ccc2c(c1)OC[C@H](C)N(CC1CCCC1)C[C@@H](C)[C@@H](OC)CN(C)C2=O	2.3	-5	3.7	3
5	O=C(C1CC1)N1CC(=O)N2[C@H](CO)[C@H](c3ccc(Br)cc3)[C@@H]2C1	-4.3	8	-1.7	5
6	CC=Cc1ccc2n(c1=O)C[C@H]1[C@H](CO)[C@@H](C(=O)NC3CCC3)N(C(=O)C3CC3)[C@@H]21 (mixture of isomers)	-3.0	-1	-3.5	3
7	CCS(=O)(=O)N1CC(=O)N2[C@H](CO)[C@@H](c3ccc(-c4ccc(F)cc4)cc3)[C@H]2C1	6.9	-7	0.8	-2
8	O=C1CN(Cc2ccccc2)C[C@H]2[C@H](c3ccc(-c4ccccc4F)cc3)[C@H](CO)N12	0.9	-28	17	-2
9	N#C[C@@H]1[C@@H](c2ccc(C#CC3CCCC3)cc2)[C@@H](CO)N1C(=O)Cc1ccccn1	3.3	0	7.7	4
10	C[C@@H]1CN([C@@H](C)CO)C(=O)Cc2cc(NC(=O)Nc3ccc(F)cc3)ccc2O[C@@H]1CN(C)Cc1ccc(C(=O)O)cc1	-4.2	1	0.3	1
11	O=C(Nc1ccc(F)cc1)N[C@H]1CC[C@@H](CCNC(=O)c2ccccc2F)O[C@@H]1CO	-2.3	-8	-0.3	-3
12	COC(=O)[C@H]1[C@H](CO)[C@H]2Cn3c(ccc(-c4cncnc4)c3=O)[C@H]2N1CCC(F)(F)F	-4.5	7	1.7	-1
13	COc1cccc(CNC(=O)c2ccc(F)c(S(=O)(=O)N3CCCCC3)c2)c1	2.0	-34	-1.3	-11
14	C[C@@H]1CCCCO[C@@H](CN(C)Cc2ccc(C(=O)O)cc2)[C@@H](C)CN([C@H](C)CO)C(=O)c2cc(NC(=O)Nc3ccc(F)cc3)ccc2O1	-4.5	0	-0.5	6
15	CCCC(=O)Nc1ccc2c(c1)C(=O)N(C)C[C@H](OC)[C@@H](C)CN(Cc1cncnc1)[C@@H](C)CO2	-0.8	3	-2.7	2
16	N#C[C@@H]1[C@H](c2ccccc2-c2cccc(F)c2)[C@H](CO)N1C(=O)NC1CCCCC1	-3.0	-30	-0.9	-10
17	COc1ccccc1-c1cn(CC[C@@H]2CC[C@@H](NC(=O)C3CCCC3)[C@@H](CO)O2)nn1	-30	8	0.0	3
18	O=C(c1cnccn1)N1CC(=O)N2[C@H](CO)[C@@H](c3ccc(C#CC4CC4)cc3)[C@@H]2C1	-0.5	-5	2.1	4
19	CCCNC(=O)[C@@H]1[C@@H](CO)[C@@H]2Cn3c(cccc3=O)[C@@H]2N1C(=O)C1CC1	-1.8	7	0.2	3
20	C[C@H]1CN([C@@H](C)CO)C(=O)c2cc(NC(=O)CCCN(C)C)ccc2O[C@H]1CN(C)Cc1ccc(Oc2ccccc2)cc1	?	-6	1.5	1
21	O=C(c1ccncc1)N1CC(=O)N2[C@H](CO)[C@@H](c3ccc(-c4ccccc4F)cc3)[C@@H]2C1	-2.7	-3	-2.7	1
22	COc1ccc2c3c([nH]c2c1)[C@H](CO)N(C(=O)c1ccccc1)CC31CCN(C(=O)Nc2cccc(F)c2)CC1	2.8	2	6.5	-7
23	CO[C@H]1CN(C)C(=O)c2cc(NC(=O)Nc3ccc(Cl)cc3)ccc2OC[C@H](C)NC[C@H]1C	8.5	-7	3.0	-4
24	CN(C)C(=O)C[C@H]1CC[C@H]2[C@@H](COC[C@@H](O)CN2CC2CC2)O1	-2.9	4	0.2	-3
25	C[C@@H]1CN([C@@H](C)CO)C(=O)c2cc(NS(=O)(=O)c3cn(C)cn3)ccc2O[C@@H](C)CCCCO[C@@H]1CN(C)C(=O)c1ccccc1	-5.4	7	1.2	6
26	O=C(c1ccc(F)cc1)N1CC(=O)N2[C@@H](CO)[C@@H](c3ccc(-c4ccccc4)cc3)[C@@H]2C1	-1.0	-8	1.5	-1
27	COc1ccc(-c2ccc([C@@H]3[C@@H](CO)N4C(=O)CN(C(=O)NC(C)C)C[C@H]34)cc2)cc1	-3.3	1	-0.3	-2
28	O=C(O)C[C@H]1C[C@H]2c3cc(NC(=O)Cc4ccncc4)ccc3O[C@H]2[C@H](CO)O1	-1.5	5	0.1	2
29	O=C(Cc1ccncc1)N1CC(=O)N2[C@@H](CO)[C@H](c3ccc(C4=CCCC4)cc3)[C@@H]2C1	-1.2	4	0.6	4
30	CCCNC(=O)N1CC(=O)N2[C@H](CO)[C@@H](c3ccc(-c4ccc(C)cc4)cc3)[C@@H]2C1	1.1	-7	-1.5	7
31	CO[C@@H]1CN(C)C(=O)c2ccc(NS(C)(=O)=O)cc2OC[C@H](C)N(CCC(F)(F)F)C[C@H]1C	0.4	-4	0.1	-1
32	CCCC#Cc1ccc([C@@H]2[C@@H](CO)N3C(=O)CN(C(=O)NC4CCCC4)C[C@@H]23)cc1	2.0	-40	24	-3
33	O=C1CN(S(=O)(=O)Cc2ccccc2)C[C@@H]2[C@H](c3ccc(C#CC4CC4)cc3)[C@@H](CO)N12	4.3	-18	1.8	2
34	O=C(CCN1CCCCC1)NCC[C@H]1CC[C@@H](NC(=O)Cc2cccnc2)[C@H](CO)O1	-0.8	2	-1.5	-2
35	COc1ccc2c3c([nH]c2c1)[C@H](CO)N(C(=O)c1ccccn1)CC31CCN(C(=O)C2CC2)CC1	1.9	-3	-4.1	2
36	CCNC(=O)c1cc2c(c(-c3cccc(Br)c3)n1)[C@H](CCO)NC2	-0.8	2	2.6	2
37	CC=Cc1ccc2n(c1=O)C[C@@H]1[C@@H](CO)[C@H](C(=O)NCCCN(C)C)[C@H]2N1Cc1nccs1 (mixture of isomers)	-3.2	5	-0.6	2
38	CCCNC(=O)N1[C@H](CO)[C@@H](c2ccccc2-c2ccccc2)[C@@H]1C#N	-2.0	4	-4.9	15
39	COc1ccccc1-c1cnc2c(c1)C(=O)N([C@@H](C)CO)C[C@@H](C)[C@@H](CN(C)CC1CC1)O2	1.6	8	0.6	7
40	C[C@H](CO)N1C[C@H](C)[C@@H](CN(C)S(=O)(=O)c2cccs2)OCc2ccccc2-c2c(n(C)c3ccccc23)C1=O	5.8	5	6.5	-1
41	CC=Cc1ccc2n(c1=O)C[C@H]1[C@H](CO)[C@@H](C(=O)NCc3ccccc3)N(CC)[C@@H]21 (mixture of isomers)	-0.9	-7	-2.2	-3
42	C[C@H](CO)N1C[C@H](C)[C@H](CN(C)C(=O)Nc2ccc(F)cc2)Oc2c(NC(=O)C3CC3)cccc2C1=O	-1.5	10	1.5	0
43	COc1ccc2c3c([nH]c2c1)[C@@H](CO)N(C(=O)c1ccncc1)CC31CN(C(=O)CC2CC2)C1	-5.8	7	-3.9	2
44	CN1C(=O)c2cc(NS(C)(=O)=O)ccc2OC[C@@H]2O[C@@H](CC(=O)NCc3ccc(-c4ccccc4)cc3)CC[C@H]21	-21	-32	1.2	-11
45	CO[C@@H]1CN(C)C(=O)c2cc(NC(=O)Nc3ccc(Cl)cc3)ccc2OC[C@@H](C)N(C)C[C@@H]1C	6.5	-6	2.8	-4
46	COc1ccc2c3c([nH]c2c1)[C@@H](CO)N(C(=O)NC1CCCC1)CC31CCN(S(C)(=O)=O)CC1	-1.7	4	0.8	1
47	COc1ccc(-c2ccc([C@@H]3[C@H]4CN(C(=O)NC(C)C)CC(=O)N4[C@H]3CO)cc2)cc1	-9.8	-10	8.6	2
48	O=C(C[C@H]1CC[C@@H]2[C@H](COC[C@@H](O)CN2C(=O)Cc2ccccc2)O1)NC1CCCC1	1.0	2	-2.6	-2
49	O=C(C1CCCC1)N1CC(=O)N2[C@@H](CO)[C@@H](c3ccc(-c4cccnc4)cc3)[C@@H]2C1	-2.6	21	-4.6	6
50	Cc1ccc(S(=O)(=O)Nc2ccc3c(c2)C(=O)N([C@@H](C)CO)C[C@@H](C)[C@H](CN(C)S(=O)(=O)c2ccccc2)OCCCC[C@H](C)O3)cc1	-3.2	-2	-1.0	-2

Structures listed so far with a cyano group (3):
item	Molecule	AF4-AF9 inh	Ecoli rRNA inh OD600	Ecoli rRNA inh RFP	Ecoli rRNA inh
9	N#C[C@@H]1[C@@H](c2ccc(C#CC3CCCC3)cc2)[C@@H](CO)N1C(=O)Cc1ccccn1	3.3	0	7.7	4
16	N#C[C@@H]1[C@H](c2ccccc2-c2cccc(F)c2)[C@H](CO)N1C(=O)NC1CCCCC1	-3.0	-30	-0.9	-10
38	CCCNC(=O)N1[C@H](CO)[C@@H](c2ccccc2-c2ccccc2)[C@@H]1C#N	-2.0	4	-4.9	15

New compounds follow:
item	Molecule	AF4-AF9 inh	Ecoli rRNA inh OD600	Ecoli rRNA inh RFP	Ecoli rRNA inh
51	CNC[C@@H]1Oc2ccc(NC(=O)CCN3CCOCC3)cc2C(=O)N([C@@H](C)CO)C[C@H]1C	-5.0	1	0.4	1
52	O=C(Nc1cccc(Cl)c1)N1[C@@H]2CNC[C@H]1C2c1ccc(-c2ccccc2)cc1 (some centres undefined)	-6.5&-1.1	-77&-77	-11&-17	-60&-59
53	COc1ccc(-c2ccc([C@H]3[C@@H](CO)N4C(=O)CN(Cc5ccc(C)cc5)C[C@@H]34)cc2)cc1	4.4	-16	5.5	1
54	CCCN(C)C[C@@H]1Oc2cc(-c3cccc(C#N)c3)ccc2S(=O)(=O)N([C@@H](C)CO)C[C@@H]1C	-0.8	-8	-2.3	-3
55	CN(C)CC#Cc1ccc([C@@H]2[C@@H](CO)N3C(=O)CN(C(=O)c4ccccc4)C[C@H]23)cc1	2.4	10	0.7	0
56	CS(=O)(=O)N1CC(=O)N2[C@H](C1)[C@@H](c1ccc(C#Cc3cccc(F)c3)cc1)[C@@H]2CO	-4.5	-13	8.6	-4
57	N#Cc1cccc(-c2ccc(C3[C@@H]4CN(S(=O)(=O)Cc5ccccc5)C[C@H]3N4)cc2)c1 (some centres undefined)	2.4	-34	-3.2	-4
58	O=C(Nc1cccc(Cc2ccccc2)c1)Nc1cccc2[nH]c([C@@H]3O[C@H](CO)[C@@H](O)[C@H](O)[C@H]3O)nc12	-3.2	-6	9.8	4
59	O=C(C1CCC1)N1CC(=O)N2[C@@H](CO)[C@H](c3ccc(C#CCc4ccccc4)cc3)[C@@H]2C1	-1.5	4	2.2	1
60	COc1cccc(C#Cc2ccc([C@@H]3[C@H](C#N)N(C(=O)C4CCCC4)[C@H]3CO)cc2)c1	-2.9	-36	24	-20
61	Cc1noc(C)c1NC(=O)N(C)C[C@H]1OCCCC[C@@H](C)Oc2ccc(NS(=O)(=O)c3ccc(Cl)cc3)cc2C(=O)N([C@H](C)CO)C[C@@H]1C	-4.0	-3	-2.8	1
62	CCCC#Cc1ccc([C@H]2[C@H](CO)N3C(=O)CN(C(=O)Nc4ccccc4F)C[C@@H]23)cc1	-0.6	-4	0.3	5

Given with two lines to a compound: part of the list above.
The line under a structure holds: AF4-AF9 inh	Ecoli rRNA inh OD600	Ecoli rRNA inh RFP	Ecoli rRNA inh
51	CNC[C@@H]1Oc2ccc(NC(=O)CCN3CCOCC3)cc2C(=O)N([C@@H](C)CO)C[C@H]1C
  -5.0	1	0.4	1
52	O=C(Nc1cccc(Cl)c1)N1[C@@H]2CNC[C@H]1C2c1ccc(-c2ccccc2)cc1 (some centres undefined)
  -6.5&-1.1	-77&-77	-11&-17	-60&-59
53	COc1ccc(-c2ccc([C@H]3[C@@H](CO)N4C(=O)CN(Cc5ccc(C)cc5)C[C@@H]34)cc2)cc1
  4.4	-16	5.5	1
54	CCCN(C)C[C@@H]1Oc2cc(-c3cccc(C#N)c3)ccc2S(=O)(=O)N([C@@H](C)CO)C[C@@H]1C
  -0.8	-8	-2.3	-3
